Bst PK mod = pyruvate kinase (B. stearothermophilus) modulation; partly purified Bacillus stearothermophilus pyruvate kinase, luminescence ATP production; ribose 5-phosphate activator present at AC10; Potency, µM; 51,000 compounds, 1.2% hits; AID 361; in the data active means potency below about 11 µM; inconclusive means mostly about 12 µM to 25 µM; inactive means weaker than that;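 the screen sought inhibitors and activators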;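 also: potency is read from the fitted curve at half-maximal effect; scaled between full activation by ribose 5 phosphate and full inhibition by luteolin; about four in five hits inhibit and the cells do not say which; series up to 57 µM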
TsaE inh = inhibitors of E. coli YjeE (TsaE) | P0AF67 | purified YjeE, fluorescence polarisation of a bound ADP probe | Potency, µM | 71,000 compounds, 0.05% hits; active = well fitted falling curve; inconclusive = weaker or top-dose-only fall, or a rising curve; inactive = flat or poorly fitted curve;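 also: top concentration of the series not given in the record; excess ADP was the control for the full effect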
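Purified YjeE (10 uM) with BODIPY Texas Red-labeled ADP probe (2 uM); compounds pin-transferred, 15 min at room temperature. Binding inhibition read as decreased fluorescence polarization; ADP titration as control.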
Numbers without * were called inactive; i = inactive; ? = inconclusive; / = no result given.

Second line of a record – Bst PK mod, TsaE inh
> COc1ccc(C(=O)CSc2nnnn2Cc2ccccc2)cc1
→ >57, i
> CC1(C)Cc2c(C#N)c(NCCc3ccccc3)nc(-c3ccco3)c2CO1
→ >26, /
> Cc1cc(C)c(C#N)c(SCc2ccc(C#N)cc2)n1
→ >57, i
> CC(C)c1ccc(NC(=O)C(c2ccc3c(c2)OCO3)N2CCN(C(=O)c3ccco3)CC2)cc1 (stereo not drawn)
→ >57, i
> O=C(CCCCn1c(=O)[nH]c2ccccc2c1=O)N1CCN(c2cccc(C(F)(F)F)c2)CC1
→ >57, i
> Cn1c2ccccc2c2ncn(CCCN3CCOCC3)c(=O)c21
→ 9.7*, i
> CCSC1=NC(=O)/C(=C2/C=Cc3ccccc3N2CC)S1
→ /, i
> Cc1nc2sc3c(c2c(=O)[nH]1)CCC3
→ /, i
> O=C(c1ccc2c(c1)OCCO2)C1CCN(S(=O)(=O)c2ccccc2F)CC1
→ >11, i
> C=C(C)COc1ccc(-c2nc(N)ncc2Oc2ccc(OC)cc2)c(O)c1
→ >57, i
> Cc1cc(S(=O)(=O)N2CC(=O)N(CCc3ccccc3)C(=O)C2)ccc1F
→ >57, i
> COc1ccc(OC)c(C(=O)c2nc3c(n2O)CCCCC3)c1
→ >57, i
> CCOc1ccc(-n2cnnn2)cc1S(=O)(=O)Nc1c(C)cccc1C
→ >57, i
> Cc1c(C(=O)NCc2ccccn2)sc2nc(-c3ccccc3)cn12
→ /, i
> O=C(NCCCN1CCCC1)Nc1cccc2ccccc12
→ >57, i
> Cn1c(=O)oc2cc(C(=O)c3ccccc3)ccc21
→ >26, /
> O=c1c2c(n3nnnc3n1-c1ccccc1)-c1ccccc1CC21CCCC1
→ >57, i
> Cc1ccc2c(c1)N(CC(=O)OC(CC(C)C)C(=O)NC1CCCC1)C(=O)CO2 (stereo not drawn)
→ >57, i
> COc1cccc(/C(O)=C2/C(=O)C(=O)N(CCN(C)C)C2c2ccc(Br)cc2)c1 (stereo not drawn)
→ >11, /
> COc1ccc(OC)c(S(=O)(=O)Nc2ccccc2SC)c1
→ >57, i
> O=S(=O)(NCC(O)COCc1ccco1)c1cccs1 (stereo not drawn)
→ >57, i
> Cc1cc(=O)[nH]c(SCC(=O)N2CCN(C(c3ccccc3)c3ccccc3)CC2)n1
→ >57, i
> CC(C)(C)c1ccc(Cn2nnc3c(=O)[nH]c(C4CCN(C(=O)Cc5cccs5)CC4)nc32)cc1
→ >57, i
> Nc1ccc2c3c(cccc13)CC2
→ >26, /
> CCn1c(SCc2nc3ccccc3[nH]2)nnc1-c1cnccn1
→ >57, i
> COc1ccc(OC)c(S(=O)(=O)N2CCC(C(=O)NCc3ccccc3)CC2)c1
→ >57, i
> CC1CCCCC1NC(=O)CCS(=O)(=O)c1cccc2nonc12 (stereo not drawn)
→ >57, i
> C1CCN(c2nc3nonc3nc2N2CCCC2)C1
→ >57, i
> CCCS(=O)(=O)N1CCN(C(=O)CCC2CCCC2)CC1
→ >57, i
> Cc1cc(C)c2c(=O)[nH]n(C(C)C)c2n1
→ >57, i
> COc1ccc(C(=O)Nc2ccccc2C(=O)NCCN2CCOCC2)cc1
→ >57, i
> Cc1cc(C)n(CCc2nc(-c3cccs3)cs2)n1
→ >57, i
> COC(=O)Cn1c(CN2CCc3ccccc3C2)nc2c1c(=O)n(C)c(=O)n2C
→ /, i
> CCC1(C(=O)O)NC(c2cccc(OC)c2O)C2C(=O)N(c3ccccc3)C(=O)C21 (stereo not drawn)
→ /, i
> OC(COc1ccc(C2C=CCC2)cc1)CN1CCCCC1 (stereo not drawn)
→ /, i
> COc1ccc(-c2nnc3ccc(SCC(=O)N4CCN(c5ccccc5)CC4)nn23)cc1OC
→ >57, i
> NC(N)=N/N=C(/c1ccccc1)c1ccc(O)cc1O
→ /, i
> CC1(C)OC(=O)C(=CNc2ccc(F)cc2)C(=O)O1
→ >57, i
> CC(NC(=O)C1C(=O)N(CCO)C2(C)CC1c1ccccc1O2)c1ccccc1 (stereo not drawn)
→ >57, i
> NCCC[C@@H](CC(=O)N[C@@H]1CCCC[C@H]1C(=O)N[C@H](CC(=O)N[C@@H](CCC(=O)O)CC(=O)O)Cc1c[nH]c2ccccc12)NC(=O)C[C@H](Cc1ccccc1)NC(=O)[C@@H]1CCCC[C@H]1N
→ /, i
> COc1ccc(S(=O)(=O)Nc2ccccn2)cc1OC
→ >57, i
> CC(=O)Nc1ccc(S(=O)(=O)N2CCC(NC(=O)c3ccco3)CC2)cc1
→ >57, i
> O=C(COc1ccc2ccc(=O)oc2c1)Nc1ccc2c(c1)OCCO2
→ /, i
> CCOC(=O)CNC(=O)CSc1nnc(-c2cccc(OC)c2)n1CC
→ >57, i
> C=CCN1C(c2ccc(OCC)cc2)=CS/C1=C(\C#N)c1nnc2n1CCCCC2
→ >57, i
> CC(O)c1cc2c(cc1NC(=O)c1cnn3c1NC(c1ccco1)CC3C(F)(F)F)OCO2 (stereo not drawn)
→ >57, i
> O=C(Cn1ccc2ccccc2c1=O)N1CCN(c2cccc(Cl)c2)CC1
→ >57, i
> c1ccc(CSc2nnnn2-c2ccc3c(c2)OCCO3)nc1
→ >57, i
> COc1ccccc1N1CCN(S(=O)(=O)c2ccc3c4c(cccc24)C(=O)N3)CC1
→ i, i
> Cn1c(C(=O)N2CCN(C3CCCCC3)CC2)cc2c(=O)n(C)c3ccccc3c21
→ /, i
> CC(C)CCSc1nnc(Cn2c(=O)sc3ccccc32)n1C
→ /, i
> OCc1nc2ccccc2n1C/C=C/c1ccccc1
→ >57, i
> C[N+](C)(C)CCCCCCCCCC[N+](C)(C)C
→ >26, i
> COC(=O)c1ccccc1NC(=O)c1ccc2c(c1)OCCO2
→ /, i
> CC1(C)CC(=O)C(C(C2=C(O)CC(C)(C)CC2=O)c2cccc(O)c2)C(=O)C1 (stereo not drawn)
→ /, i
> CC(C)[C@@H](CC(=O)N[C@@H]1CCNC[C@H]1C(=O)N[C@H](CC(=O)N[C@@H](CCC(=O)O)CC(=O)O)Cc1c[nH]c2ccccc12)NC(=O)C[C@H](Cc1c[nH]c2ccccc12)NC(=O)[C@@H]1CNCC[C@H]1N
→ /, i
> CCOc1ccc(S(=O)(=O)N(CC(=O)N2CCc3ccccc32)Cc2ccco2)cc1
→ >57, i
> CCCOc1ccc(C(=O)N2CCN(c3ccc(N)cc3Cl)CC2)cc1
→ >57, i
> CCCNC(=O)N1CCN(S(=O)(=O)c2ccc(C)c(C)c2)CC1
→ ?, i
> Cc1ccc(S(=O)(=O)Nc2nc3ccccc3nc2NCc2ccco2)cc1C
→ >57, i

Reprinted from the part before: 6 entries, then new ones.
Second line of a record – Bst PK mod, TsaE inh
> CC1(C)CC(=O)C(C(C2=C(O)CC(C)(C)CC2=O)c2cccc(O)c2)C(=O)C1 (stereo not drawn)
→ /, i
> CC(C)[C@@H](CC(=O)N[C@@H]1CCNC[C@H]1C(=O)N[C@H](CC(=O)N[C@@H](CCC(=O)O)CC(=O)O)Cc1c[nH]c2ccccc12)NC(=O)C[C@H](Cc1c[nH]c2ccccc12)NC(=O)[C@@H]1CNCC[C@H]1N
→ /, i
> CCOc1ccc(S(=O)(=O)N(CC(=O)N2CCc3ccccc32)Cc2ccco2)cc1
→ >57, i
> CCCOc1ccc(C(=O)N2CCN(c3ccc(N)cc3Cl)CC2)cc1
→ >57, i
> CCCNC(=O)N1CCN(S(=O)(=O)c2ccc(C)c(C)c2)CC1
→ ?, i
> Cc1ccc(S(=O)(=O)Nc2nc3ccccc3nc2NCc2ccco2)cc1C
→ >57, i
> O=C(CCCCn1c(=O)[nH]c2ccccc2c1=O)NCc1ccc2c(c1)OCO2
→ >57, i
> CC1(C)CC(=O)C(C=NCCN2CCN(CCc3ccccc3)CC2)=C(O)C1
→ >26, /
> CCOC(=O)c1[nH]c(C)c(/C(O)=C2\C(=O)C(=O)N(CCCN(CC)CC)C2c2cccnc2)c1C (stereo not drawn)
→ >57, i
> O=C(c1ccc(Cl)c(Cl)c1)N(Cc1ccco1)c1ccc(O)cc1
→ ?, i
> N#CC1=C(SCC(=O)c2ccccc2)NC2=C(C(=O)CCC2)C1c1ccco1 (stereo not drawn)
→ >26, /
> Cc1c(C)c2cc3c4c(oc3c(C)c2oc1=O)CCCC4
→ >57, i
> COc1ccc2c(c1)c(CC(=O)O)c(C)n2Cc1ccc(F)cc1
→ /, i
> O=C(/C=N/O)NCc1ccncc1
→ >57, i
> CCCOC(=O)c1[nH]c2c(c1C)C(=O)CC(c1cc(OC)c(OC)c(OC)c1)C2 (stereo not drawn)
→ /, i
> O=C(CCS(=O)(=O)c1cccc2nonc12)N1CC(=O)N(CCc2ccccc2)C(=O)C1
→ >57, i
> COc1cc(C(=O)OC2CCCCC2=O)cc(OC)c1C (stereo not drawn)
→ >57, i
> Cc1ccc(CCNC(=O)C2CCCN2S(=O)(=O)c2ccc3c(c2)CCC(=O)N3)cc1 (stereo not drawn)
→ /, i
> Cc1ccc(Cn2c(NC(=O)c3ccco3)nc3ccccc32)cc1
→ >57, i
> COc1ccc(C(=O)c2coc3ccc(O)c(CN(C)C)c23)cc1
→ /, i
> C[C@@H](C(=O)O)c1ccc(C[C@@H]2CCCC2=O)cc1
→ /, i
> Cc1nc2cc(F)ccc2n1C1CCN(S(=O)(=O)c2ccccc2)CC1
→ >57, i
> Cc1cccc(-n2nc3c(c2NC(=O)c2ccco2)CSC3)c1C
→ >57, i
> CCn1cc(C(=O)Nc2ccc3c(c2)OCCO3)c2cc(OC)c(OC)cc2c1=O
→ /, i
> CCC(=O)N1CN(S(=O)(=O)c2ccc(C)cc2)CC1C (stereo not drawn)
→ >57, i
> COc1ccccc1-c1cc(C(F)(F)F)nc(N2CCOCC2)n1
→ >57, i
> O=C(CCCN=C1NS(=O)(=O)c2ccccc21)OCC(=O)N1CCc2ccccc21
→ >57, i
> Cn1cc(Cl)c(C(=O)Nc2cccc(Cl)c2Cl)n1
→ >57, i
> COc1ccc(S(=O)(=O)N(C)CC(=O)NCc2cccnc2)cc1C
→ >57, i
> N#Cc1ccccc1-c1cncnc1NCc1cccnc1
→ /, i
> CCOC(=O)CCC(=O)Nc1ccc(S(=O)(=O)N2CCCC2)cc1
→ >57, i
> COc1ccccc1NC(=O)NCCCN1CCN(c2cccc(Cl)c2)CC1
→ /, i
> O=C1CCc2cc(S(=O)(=O)N3CCC(C(=O)NC4CCCCCCC4)CC3)ccc2N1
→ /, i
> Cc1ccc(C)n1-c1cccc(N)c1
→ >57, i
> CC(=O)CCc1c[nH]c2c(C(=O)O)cccc12
→ /, i
> CC[C@H]1C2=C3C(CC[C@H]4C(OCc5ccc(F)cc5C(F)(F)F)OC[C@](C)([C@@H]34)N(C(=O)OC(C)(C)C)C2)C2COC(=O)OCC21 (stereo partly drawn)
→ /, i
> O=C(O)[C@@H](O)[C@@H](O)[C@@H](O[C@H]1O[C@@H](CO)[C@@H](O)[C@@H](O)[C@@H]1O)[C@@H](O)CO
→ /, i
> CCOc1ccc(-c2c(C#N)c(N)nc3c2c(=O)n(C)c(=O)n3C)cc1OC
→ >57, i
> Cc1ccc(CC(=O)Nc2cccc(C)n2)cc1
→ >57, i
> CCC(C)N1CC(C(=O)NC2CCCCC2)CC1=O (stereo not drawn)
→ >57, i
> CCOC(=O)C1CCN(C(c2cccc(OC)c2)c2sc3nc(C)nn3c2O)CC1 (stereo not drawn)
→ /, i
> NCCC[C@@H](CC(=O)N[C@@H]1CCNC[C@H]1C(=O)N[C@H](CC(=O)N[C@@H](CCC(=O)O)CC(=O)O)Cc1c[nH]c2ccccc12)NC(=O)C[C@H](CO)NC(=O)[C@@H]1CCCC[C@H]1N
→ /, i
> CCOc1ccccc1N1Cc2cc(C)c(C)cc2C1
→ /, i
> Cc1ccc(S(=O)(=O)N2Cc3ccccc3CC2C(=O)Nc2cc(C)on2)cc1 (stereo not drawn)
→ /, i
> O=P(O)(OCc1ccccc1)OCc1ccccc1
→ /, i
> NS(=O)(=O)c1ccc(CCNC(=O)COC(=O)C2CCCN2C(=O)c2cccs2)cc1 (stereo not drawn)
→ >57, i
> Cc1cc(NC(=O)CSc2c3c(nc4ccccc24)CCC3)no1
→ /, i
> c1ccc2c(c1)OCC(c1nnc3sc(-c4ccc5c(c4)OCO5)nn13)O2 (stereo not drawn)
→ >57, i
> COc1ccc(-c2cc(C(F)F)n3ncc(C(=O)N4CCN5CCCC5C4)c3n2)cc1 (stereo not drawn)
→ >57, i
> Cc1cccn2c(=O)c3cc(C(=O)NCc4ccco4)c(=N)n(CCc4ccccc4)c3nc12
→ /, i
> c1ccc(-c2cccc(N3CCC4(CCNCC4)CC3)c2)cc1
→ /, i
> Cc1nc(CNS(=O)(=O)c2ccc3c(c2)OCCO3)cs1
→ >57, i
> COc1ccc(Cl)cc1NC(=O)Cn1c(=O)n2nc(C)nc2c2ccccc21
→ /, i
> Cn1c(=O)oc2cc(S(=O)(=O)NCCN3CCN(c4ccccc4F)CC3)ccc21
→ /, i
> O=C(NC1(C(F)(F)F)NC(=O)N(CC2CCCCC2)C1=O)c1ccco1 (stereo not drawn)
→ >57, i
> CCOC(=O)C1=C(C)NC2=C(C(=O)C(C(=O)OCC)C(c3ccco3)C2)C1c1ccccn1 (stereo not drawn)
→ >57, i
> O=C(COC(=O)CCCN1C(=O)c2ccccc2C1=O)Nc1ncc(Cl)cc1Cl
→ >57, i
> CN1C(=O)CC(N2CCN(c3ccccn3)CC2)C1=O (stereo not drawn)
→ /, i
> Cn1ccnc1SCC(=O)c1ccc(Br)cc1
→ >57, i
> O=C(Cc1ccc(-n2cccc2)cc1)N1CCN(c2ccccc2F)CC1
→ >57, i
> CCCn1c(SCC(=O)Nc2cccc(C(=O)OC)c2)nnc1-c1cccnc1
→ >57, i
> CCOC(=O)c1c(-c2cccs2)csc1NC(=O)COC(=O)c1c(C)noc1C
→ >57, i

Source: PubChem BioAssay

This is a subset. The share of hits here may be higher or lower than overall.
